# Bioassay records as filed in PubChem.
# Env fusion inh: inhibitors of HIV-1 Env-driven cell-cell fusion, primary screen, HeLa-JRFL effector, CEM21 target cells, luciferase. inhibition, % at 12.3 µM. 360,000 tested, 1.1% active;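 active = mean replicate inhibition score of at least 50 and every replicate individually at or above 50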;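 note: 0% = plate neutral controls and 100% = maraviroc near 300 nM; one replicate is shown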
# Rce1 inh: yeast Rce1p protease inhibitors, primary screen, biochemical, fluorescence, cell-free homogeneous. CAAX prenyl protease 2 (Saccharomyces cerevisiae (strain ATCC 204508 / S288c)), Q03530. yeast membranes, quenched prenylated peptide cleavage fluorescence. calls only. 290,000 tested, 0.27% active. AID 2563, 2010;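 active = fall in fluorescence gain of 50% or more versus controls, with final raw signal at or below 3038400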;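 note: plate controls were neutral control wells for no effect and wells lacking membranes for full effect; tested at 10 µM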
# UUG fidelity: modulators of yeast start codon fidelity, primary screen, whole organism, S. cerevisiae, single point, plate reader | 350,000 tested, 0.13% active | activity score, % at 18.7 µM | S. cerevisiae UUG-firefly luciferase reporter, luminescence/redox ratio;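 active = replicate mean at a twofold rise or more, about +100% in these data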;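 note: firefly luciferase made from a UUG start codon reports start codon fidelity; reporter light over untreated wells divided by growth signal over untreated wells; some hits fall short of that in this replicate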
# eIF4H FP inh: human eIF4H binding inhibitors, primary screen, translation initiation inhibitor project, biochemical, uHTS, fluorescence polarization | Eukaryotic translation initiation factor 4H (Homo sapiens), Q15056 | eIF4H fluorescence polarization binding assay | inhibition, % at 35 µM | 290,000 tested, 0.94% active | AID 2012, 2009;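 active = 50% or more with normal probe brightness, or confirmed in later tests; about a fifth of its hits are not listed in these tables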;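 note: calls also rest on retests at 20 µM and on dose response follow-up; 0% = protein and probe with vehicle and 100% = probe without protein; strong numbers were not always called active; many hits fall short of the cut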
# PABP FP inh: PABP poly(A) RNA binding inhibitors, primary screen, biochemical, fluorescence polarization, uHTS; Polyadenylate-binding protein 1 (Homo sapiens), P11940; 290,000 tested, 1% active; inhibition, % at 35 µM;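 active = 50% or more with normal probe brightness, or confirmed in later tests; about a fifth of its hits are not listed in these tables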;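 note: calls also rest on retests at 20 µM and on dose response follow-up; controls were probe without protein and protein plus probe with vehicle; some compounds called inactive have numbers as strong as hits; many hits fall short of the cut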
# Target sequence (P11940 whole entry, looked up): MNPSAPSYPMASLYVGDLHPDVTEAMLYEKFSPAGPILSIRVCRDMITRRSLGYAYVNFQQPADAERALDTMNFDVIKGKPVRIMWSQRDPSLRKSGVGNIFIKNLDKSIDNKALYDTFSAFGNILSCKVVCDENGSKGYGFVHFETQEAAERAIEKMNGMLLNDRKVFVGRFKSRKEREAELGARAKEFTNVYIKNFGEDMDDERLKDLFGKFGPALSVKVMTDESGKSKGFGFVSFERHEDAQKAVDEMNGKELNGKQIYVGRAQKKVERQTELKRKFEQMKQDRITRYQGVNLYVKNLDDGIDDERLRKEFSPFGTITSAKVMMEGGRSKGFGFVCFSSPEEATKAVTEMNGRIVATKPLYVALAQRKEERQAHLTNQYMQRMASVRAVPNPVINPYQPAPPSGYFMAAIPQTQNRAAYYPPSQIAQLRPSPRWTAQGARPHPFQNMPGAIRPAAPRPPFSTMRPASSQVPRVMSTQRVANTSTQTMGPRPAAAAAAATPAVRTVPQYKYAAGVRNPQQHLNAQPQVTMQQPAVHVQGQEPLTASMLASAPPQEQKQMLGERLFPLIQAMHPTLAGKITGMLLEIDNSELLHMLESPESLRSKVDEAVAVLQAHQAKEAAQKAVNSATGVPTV
# MT1-MMP act inh: blockers of MT1-MMP proenzyme processing, primary screen, HT1080 RFP-PRO-GFP cells, GFP/RFP fluorescence. GFP/RFP ratio change, % at 20 µM. Matrix metalloproteinase-14 (Homo sapiens), P50281. AID 651647, 2012. GFP/RFP ratio fluorescence, overnight; percent of plate control window, DMSO zero. 360,000 tested, 0.061% active;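 active = GFP/RFP ratio change of at least 30% with cell ATP level not reduced by more than half and red fluorescence within 50% of control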; note: strong numbers were not always called active
#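 Material – HT1080 RFP-PRO-GFP cells · Control set – DMSO wells and RFP-L50D-GFP cells · Incubation – overnight cell settling, then overnight compound exposure, 37 °C, 5% CO2 · Compound dosing – single-point 20 µM compound, 1% DMSO · Read-out – GFP/RFP fluorescence ratio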
# CSC inhib: cancer stem cell viability inhibitors, primary screen, luminescence; 300,000 tested, 1.1% active; inhibition, % at 7.5 µM; cancer stem cell-like cells viability;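 active = mean at 75% or more and at least half the replicates too; tested in HMLE shEcad cells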;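 note: 0% = median of negative and 100% = median of positive control wells; the first replicate is given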
# MT1-MMP act inh RFP: further read-out of MT1-MMP act inh, marked with its call; RFP signal change, %; measured here: RFP expression control read;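 0 = vehicle wells; hits needed this value within 50% of zero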
# Numbers without * were called inactive; i = inactive; . = not tested or not shown; & = joins results of further samples; [ ] = remark or other dose.
smiles	Env fusion inh	Rce1 inh	UUG fidelity	eIF4H FP inh	PABP FP inh	MT1-MMP act inh	MT1-MMP act inh RFP	CSC inhib
COc1ccc(-n2nc(C(=O)NCC(=O)Nc3ccccn3)c3ccccc3c2=O)cc1	-6	i	-3	1	0	-1	2	18
OC(CN1CCN(Cc2ccccc2)CC1)Cn1c2ccccc2c2ccccc21 (stereo unspecified)	-28	i	.	-3	3	-4	-7	25
N/C(=N\OC(=O)C1CCCCC1)c1ccc(Cl)cc1	-36	i	-8	-1	13	-5	-2	0
Cc1ccc(C)c(NC(=O)C(C)CC2COCCO2)c1 (stereo unspecified)	-69	i	.	11	-6	2	-3	-1
C[C@H]1CN([C@@H](C)CO)C(=O)c2cc(-c3cccnc3)cnc2O[C@H]1CN(C)Cc1ccc(Oc2ccccc2)cc1	-21&18[16.7 µM]	.	-15&-8&-8	.	.	3	-1	.
CC(=O)Nc1ccc(SC[C@H](Cc2ccccc2)N2CCN(CCc3ccccc3)CCC2=O)cc1	-13	i	3	-4	-7	1	-4	2
CCCCCn1c(S(=O)(=O)O)nc2ccccc21	-19	i	-17	5	1	0	-1	-23
Cc1cc(C)nc(SCC(=O)N(C)CC(=O)Nc2c(Cl)cccc2Cl)n1	-8	i	-4	.	.	0	1	-2
CC(NC(=O)c1cccc(S(=O)(=O)N2CCN(Cc3ccccc3)CC2)c1)c1ccc(Br)cc1 (stereo unspecified)	.	i	-18	4	26	3	-8	-17
CC(=O)Nc1nc(C)c(Cc2ccccc2)c(=O)[nH]1	.	i	-5	-12	-6	3	-1	.
Cc1noc(C)c1C(=O)Nc1nc(-c2cccs2)cs1	.	.	-16	.	.	10	-5	-3
CCN(CC)C(=O)CSc1ncnc2c(-c3ccc(OC)cc3)nsc12	.	i	.	-11	1	.	.	-8
CCn1c(=O)cc(SCC(=O)N2CCN(C(=O)c3ccco3)CC2)c2ccccc21	-22	i	0	-12	-5	13	8	-4
O=C(O)CCN1C(=O)c2ccc(NC(=O)CCc3ccccc3)cc2C1=O	-5	i	-4	36	17	-4	5	-18
Cc1cc(OCC(=O)NCCc2c[nH]c3ccccc23)c2c(C)c(C)c(=O)oc2c1	.	i	-11	-2	8	4	-5	12
O=C1C=CN2CCOCC2C1 (stereo unspecified)	-33	.	-10	.	.	0	6	.
COc1cccc(C(=O)Nc2ccncc2)c1	.	i	.	6	-3	.	.	0
CC(=O)Nc1ccc(NC(=O)C2Cc3c(-c4cccc(NC(C)=O)c4)ccnc3O2)cc1 (stereo unspecified)	-5	.	-2	.	.	3	2	.
Cc1cc(=O)[nH]c(N/N=C/CCc2ccccc2)n1	3	i	.	-2	-14	0	10	5
CCn1nc([N+](=O)[O-])c(C(C#N)c2nc3cc(C(F)(F)F)ccc3s2)c(Cl)c1=O (stereo unspecified)	35	i	-14	-9	29	25	-21	112*
CC(COS(N)(=O)=O)Cc1ccc(C(F)(F)F)cc1 (stereo unspecified)	-27	i	-7	-2	-7	7	-1	-23
CC(OC(=O)CNC(=O)c1ccc(Cl)c([N+](=O)[O-])c1)C(=O)NCc1ccco1 (stereo unspecified)	.	i	-3	.	.	-1	3	-9
CCCCCN(C(=O)NC(=O)NCCCC)S(C)(=O)=O	-28	i	-2	-3	-10	2	-1	-12
C/C(=C\c1ccco1)C1C(C#N)=C(N)Oc2n[nH]c(-c3ccccc3)c21 (stereo unspecified)	-98	i	-27	1	3	-11	4	-18
CC(=O)c1ccc(S(=O)(=O)NCC(=O)N2CCN(C/C=C/c3ccccc3)CC2)cc1	-2	.	-16	.	.	5	-6	-6
Cc1ccccc1NC(=O)NC(C)(C)CC(C)(C)C	7	i	-33	-7	-2	-3	-1	-13
CCOC(=O)COn1c(=O)c(-c2ccc(C)cc2)[n+]([O-])c2ccccc21	-22	i	0	-2	-6	-1	-1	-2
O=C(Nc1cccnc1)c1cc(-c2ccccc2O)on1	-7	i	.	-1	3	-4	3	61
Cc1ccc(NC(=O)c2ccc(OCc3c(C)noc3C)cc2)cc1C	53	.	-33	.	.	-3	-28	30
Cc1[nH]n(-c2ccccc2)c(=O)c1C(C[N+](=O)[O-])c1ccc(Cl)cc1 (stereo unspecified)	7	i	-15	-4	0	11	-9	-5

# Continued; the last 4 above are carried over.
smiles	Env fusion inh	Rce1 inh	UUG fidelity	eIF4H FP inh	PABP FP inh	MT1-MMP act inh	MT1-MMP act inh RFP	CSC inhib
CCOC(=O)COn1c(=O)c(-c2ccc(C)cc2)[n+]([O-])c2ccccc21	-22	i	0	-2	-6	-1	-1	-2
O=C(Nc1cccnc1)c1cc(-c2ccccc2O)on1	-7	i	.	-1	3	-4	3	61
Cc1ccc(NC(=O)c2ccc(OCc3c(C)noc3C)cc2)cc1C	53	.	-33	.	.	-3	-28	30
Cc1[nH]n(-c2ccccc2)c(=O)c1C(C[N+](=O)[O-])c1ccc(Cl)cc1 (stereo unspecified)	7	i	-15	-4	0	11	-9	-5
COc1ccc(/C=C2/Sc3ccc(C(=O)N4CCc5ccccc5C4)cc3NC2=O)cc1	6	i	.	11	3	1	1	22
COC(=O)c1c(NC(=O)CSc2nncs2)sc2c1CCCCC2	.	i	-17	2	-6	-10	-17	-11
O=C(Nc1ccccc1)c1ccc(-c2ccccc2)s1	-105	i	.	-6	-4	-1	-2	16
O=C(NCCN1CCN(c2ccccc2)CC1)Nc1ccc(Cl)cc1	-1	i	-20	-6	-9	6	0	25
CS(=O)(=O)NCCCCNc1ccc(C(F)(F)F)cc1[N+](=O)[O-]	-9	i	.	-2	-4	4	-3	-12
O=C(NCCn1cccc1)c1cccc2ccccc12	.	i	-16	0	7	3	4	12
COc1ccc(/C=C/C(=O)c2c(O)ccc3c(C)cc(=O)oc23)cc1	-12	i	.	-2	-8	1	-5	24
COc1cc(NC(=S)NCCCN2CCOCC2)cc(OC)c1OC	14	i	.	-9	5	2	7	-13
OC(c1cc(-c2ccc(C(F)(F)F)cc2)nc(C(F)(F)F)c1)C1CCCCN1 (stereo unspecified)	2	i	6	11	7	-19	-14	104*
CCOc1ncccc1C(=O)OCc1ccc(C(=O)OC)cc1	-8	i	.	2	32	-3	-6	13
NC(=O)C1CCN(C(=O)CC(c2ccccc2)c2ccccc2)CC1	5	i	-16	-3	2	1	7	-8
CCCC(=O)Nc1ccc(S(=O)(=O)N2CCC(c3nc4ccccc4[nH]3)CC2)cc1	-17	i	-20	.	.	-1	-3	0
COc1ccccc1-c1noc(CCCC(=O)Nc2ccc(C(N)=O)cc2)n1	-5	i	-18	1	4	2	4	-6
Cc1ccc(N/N=C/C=C/c2ccco2)cc1	-119	i	.	.	.	-11	-4	44
CCOc1ccc(/C(O)=C2\C(=O)C(=O)N(CCOCCO)C2c2ccccc2OC)cc1 (stereo unspecified)	-91	i	-2	0	-3	1	0	-13
Cc1ccc(C23CC4CC(CC(NC(=O)NCCN(C)C)(C4)C2)C3)cc1	-10	i	-20	-12	-5	-2	0	5
O=C(c1ccc(Cl)cc1)C1CCN(C(=O)c2ccccc2F)CC1	10	.	1	.	.	1	0	.
Oc1cc2c(cc1CN1CCN(c3ncccn3)CC1)OCO2	.	i	-23	-16	-5	-4	-3	-2
CC1CN(CC(=O)Nc2ccc([N+](=O)[O-])cc2Br)CC(C)O1 (stereo unspecified)	16	i	.	2	8	-1	-1	5
O=C(COc1ccc2c(c1)OCO2)Nc1ccc2c(c1)oc1ccccc12	.	i	-3	6	-6	2	3	-5
CCn1cc(CNCc2cn(C)nc2-c2ccc(C3CCCCC3)cc2)cn1	22	i	.	-9	-10	-1	-1	.
COc1cc(N2C(=O)CC3(CCCC3)CC2=O)cc(OC)c1OC	10	i	-14	-1	-6	4	2	-11
CC(C)n1nc(C(=O)Nc2nc3ccccc3[nH]2)c2ccccc2c1=O	-6	i	-8	-4	16	16	2	1
COC(=O)Nc1ccc(S(=O)(=O)N2CCC(C(=O)N3CCCCC3C)CC2)cc1 (stereo unspecified)	8	i	.	7	5	1	-4	-10
Cc1ccccc1-c1noc(C2CCCCC2)n1	-69	i	-3	-3	-6	3	0	-4
S=c1[nH]nc(CSCCOc2ccccc2)o1	-11	i	.	3	4	5	-9	-8
Cc1ccccc1CNC(=O)Cn1cnc(S(=O)(=O)N2CCCC2)c1	-7	i	-13	1	8	0	-1	-10
COc1ccccc1C(=O)Nc1ccnn1C1CCN(C)CC1	-17	i	-9	-6	5	0	2	-10
CCn1nnc2cc(C(=O)Nc3cccc(S(=O)(=O)N(C)C)c3)ccc21	.	.	14	.	.	1	1	-9
COc1cc(C)nc(NC(=S)N(C)C(=O)c2ccccc2)n1	0	i	24	4	-3	5	1	12

# Later entries
smiles	Env fusion inh	Rce1 inh	UUG fidelity	eIF4H FP inh	PABP FP inh	MT1-MMP act inh	MT1-MMP act inh RFP	CSC inhib
O=C(COc1ncnc2cc([N+](=O)[O-])ccc12)N(CCc1ccccc1)Cc1ccccc1	-2	i	.	0	6	-1	-4	10
CCOC(=O)c1cc2ccccc2n1CC(=O)c1ccccc1	18	i	-17	0	2	-7	-1	-5
CCCNC(=O)C1CC(=O)N(c2ccc(OCC)cc2)C1 (stereo unspecified)	0	.	-17	-11	-17	0	0	5
CS(=O)(=O)N(CC(=O)N1CCCC1)c1cccc(Cl)c1	-63	i	-13	-11	-1	-4	-6	-10
COc1ccc(-c2csc3ncnc(N4CCN(c5ccccc5OC)CC4)c23)cc1	32	i	-12	-5	5	-4	-11	22
CCN(CC)C(=O)C1=C(C)N(Cc2ccc(C(C)(C)C)cc2)C(=O)C(CC(=O)NCC2CCCCC2)C1 (stereo unspecified)	50	.	19	.	.	3	-2	.
COc1ccc(/C(C)=N/NC(=O)c2nc(C)cc(C)n2)cc1	-46	i	-26	-14	7	0	4	-19
COc1ccc(N=C2S/C(=C\c3ccc(N4CCOCC4)o3)C(=O)N2CCc2c[nH]c3ccccc23)cc1	.	i	0	7	2	-288	-27	-2
COc1ccccc1C(=O)Oc1ccc(N2C(=O)CCC2=O)cc1	.	i	-5	-2	-4	1	7	9
CCOC(=O)c1sc(NC(=O)CSc2nc(C)cc(C)n2)c(C#N)c1C	10	i	-1	-7	-1	.	.	-11
CN(C)CCNC(=O)NC1CCCCC1	.	i	-11	6	-5	3	1	-8
CCN(CC(=O)NCc1cccs1)C(=O)CCC(=O)c1ccc(C)cc1	-6	i	-9	.	.	-1	1	-8
CCOC(=O)C1CCN(C(=O)c2ccc(Cl)c(S(=O)(=O)N3CCCC3)c2)CC1	26	i	-5	-7	-2	-4	2	-13
Cc1cccc(OCCC(=O)NNC(=O)c2ccoc2C)c1	.	.	-2	.	.	1	2	11
COc1cc(CNCc2cccc(OC)c2OC)cc(OC)c1	-6	i	-15	5	9	2	-1	-9
c1ccc(-c2cc3ccccc3[nH]2)cc1	.	i	-12	2	14	1	-7	1
COc1ccc(/C=C/CN2CCCC(C(=O)c3ccc(OC)c(F)c3)C2)cc1 (stereo unspecified)	21	i	16	-7	-7	-7	-4	19
CCOC1=CC(=O)OC(c2ccccc2)C1 (stereo unspecified)	16	.	-12	.	.	-1	0	.
